# Source: PubChem
# MARV entry inh: blocks Marburg virus binding to or entry into cells | Marburg virus pseudotyped entry inhibition, cell reporter; control for the full effect not named in the record; about a third of the inactives were read at about 46 µM | Potency, µM (doses to about 37.8 µM), for inactives: top-dose activity change, negative = inhibition, actives largely listed as inhibitors | 300,000 compounds, 1.8% hits; active = well fitted inhibition curve with a large enough effect; inconclusive = small, poorly fitted or top-dose-only effect, or effect the other way; inactive = flat fitted curve, though single readings scatter; tested in HEK293 cells; about a fifth of its hits are not listed in these tables; also: % is scaled to controls: 0 for no effect and ±100 for the full control effect; luciferase read-out
# NS1 function inh: inhibitors of influenza NS1 protein function; S. cerevisiae slowed by influenza A NS1, growth recovery by OD600; Potency, µM (series often up to 46.1 µM), inactives show at the top dose activity, positive = more growth; 270,000 compounds, 0.4% hits; AID 2326; also: actives are rising curves; nearly all actives have a fitted effect of over 50% in size
#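 OD600 was taken as the measure of yeast growth restored by compound in an NS1-expressing S. cerevisiae strain. Cells had been washed out of glucose medium and diluted 1:100 into galactose -URA medium, pH 6.0.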
# SARS PLP yeast: blocks SARS-CoV papain-like protease in a yeast assay | S. cerevisiae expressing SARS-CoV PLpro, growth rescue; control for the full effect not named in the record | Potency, µM (doses to about 32.9 µM), for inactives: top-dose activity, positive = growth rescue | 330,000 compounds, 0.19% hits; also: 0% is about no effect; nearly all actives have a fitted effect of over 55% in size; growth read by luminescence after 48 h
# StopGo reporter: lowers the luciferase signal of an FMDV 2A StopGo reporter; human cells with a luciferase reporter of 2A StopGo recoding; control for the full effect not named in the record; Potency, µM (doses to about 57.9 µM), for the others: at the top dose signal change, negative = less light; 410,000 compounds, 1.2% hits; AID 1159524; active = well fitted falling curve with a large enough effect; inconclusive = small, poorly fitted or top-dose-only effect; inactive = no such curve, though single readings can be large or run the other way; tested in HEK293T cells; also: % is scaled to controls: 0 for no effect and ±100 for the full control effect; nearly all actives have a fitted effect of over 45% in size; luciferase light after 4 h
# Cruzain inh Det: inhibitors of Trypanosoma cruzi cruzain with detergent | 200,000 compounds, 0.43% hits | P25779 | AID 1478 | purified cruzain, Z-FR-AMC fluorescence, 0.01% Triton | Potency, µM, without a hit: max response, negative = inhibition, hits mostly inhibitors; active = well fitted curve in the direction sought with a large enough effect; inconclusive = small, poorly fitted or top-dose-only effect, or another doubt; inactive = no such curve, though single readings can be large; an effect the other way counts as inactive or inconclusive;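 also: plate controls were neutral wells for no effect and buffer without enzyme for full effect; nearly all actives have a fitted effect of over 40% in size; top concentration of the series not given in the record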
# Target sequence (P25779 123-467 limits assumed): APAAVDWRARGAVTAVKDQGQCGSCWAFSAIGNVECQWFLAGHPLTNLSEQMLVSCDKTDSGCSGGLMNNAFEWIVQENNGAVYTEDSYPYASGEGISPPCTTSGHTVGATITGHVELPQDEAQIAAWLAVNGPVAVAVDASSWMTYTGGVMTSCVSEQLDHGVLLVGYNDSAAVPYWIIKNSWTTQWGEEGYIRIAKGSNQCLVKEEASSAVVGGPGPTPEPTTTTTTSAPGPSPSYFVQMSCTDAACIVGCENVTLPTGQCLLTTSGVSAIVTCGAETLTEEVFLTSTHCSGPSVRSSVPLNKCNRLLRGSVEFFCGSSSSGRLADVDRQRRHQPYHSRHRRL
#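 Read-out: AMC fluorescence (360 nm excitation, 450 nm emission), four reads over 2 min, first-to-third difference used. Conditions: cruzain 1.5 nM, Z-FR-AMC 2 uM, pH 5.5 acetate, 5 mM DTT, 0.01% Triton X-100.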
# RE007 growth inh: less growth of the S. pombe RE007 Vpr strain; S. pombe RE007 Vpr strain, BacTiter-Glo ATP luminescence, 24 h; control for the full effect not named in the record; Potency, µM (titrated, usually from 92.2 µM), for inactives: at the top dose activity change, negative = less growth; 360,000 compounds, 0.21% hits; active = well fitted falling curve with a large enough effect; inconclusive = small, poorly fitted or top-dose-only effect; inactive = no such curve, though single readings can be large or run the other way;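 also: % is scaled to controls: 0 for no effect and ±100 for the full control effect; nearly all actives have a fitted effect of over 50% in size; the assay follows cell death caused by Vpr and the record does not say whether a fall means rescue or toxicity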
#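 Fission yeast strain RE007, carrying one chromosomally integrated HIV-1 vpr copy, was seeded at OD 0.01 in PMG+AL medium with 23 nL pinned compound. After 24 h at 30 °C and 99% humidity, viability was read by BacTiter-Glo luminescence.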
# LASV entry inh: Lassa virus entry inhibition | Lassa virus pseudotype entry inhibition, cell reporter; control for the full effect not named in the record | Potency, µM (titrated, usually from 37.9 µM), for the others: at the top dose activity change, negative = inhibition, most hits filed as inhibitors | 300,000 compounds, 1.2% hits; active means well fitted inhibition curve with a large enough effect; inconclusive means small, poorly fitted or top-dose-only effect, or effect the other way; inactive means flat fitted curve, though single readings scatter; tested in HEK293 cells; also: % is scaled to controls: 0 for no effect and ±100 for the full control effect; nearly all actives have a fitted effect of over 50% in size; luciferase read-out
# Cruzain noTriton: inhibitors of Trypanosoma cruzi cruzain without detergent; P25779; purified cruzain, Z-FR-AMC fluorescence, no detergent; Potency, µM, inactives show max response, negative = inhibition, usual class: inhibitors; 200,000 compounds, 2.3% hits; AID 1476; active = well fitted curve in the direction sought with a large enough effect; inconclusive = small, poorly fitted or top-dose-only effect, or another doubt; inactive = no such curve, though single readings can be large; an effect the other way counts as inactive or inconclusive;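 also: plate controls were enzyme without inhibitor for no effect and buffer without enzyme for full effect; nearly all actives have a fitted effect of over 40% in size; top concentration of the series not given in the record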
#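 Detergent-free condition (0.00005% Triton X-100) in acetate buffer pH 5.5 with DTT. 1.5 nM enzyme and compound were pre-mixed 15 min, then 2 uM Z-FR-AMC substrate added; reaction progress from fluorescence change between first and third reads (60 s).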
# Starred values were filed as active, the others as inactive; ? = inconclusive; nt = no result given; & = joins results of further samples; [ ] = remark or other dose. Unless noted, calls follow the shape of the dose curve; as a rule, active means well fitted rising curve with a large enough effect; inconclusive means small, poorly fitted or top-dose-only effect; inactive means no such curve, though single readings can be large or run the other way. Potency is read from the fitted curve at half-maximal effect. Rows are unselected, and some 4.7% of all compounds hit somewhere here.
SMILES,NS1 function inh,Cruzain noTriton,LASV entry inh,SARS PLP yeast,MARV entry inh,Cruzain inh Det,RE007 growth inh,StopGo reporter
OCCC1CN(Cc2cccc(-n3cccn3)c2)CCN1Cc1ccccc1 (stereo unspecified),-0.5%,nt,nt,0.6%,-29.9%[46.1 µM],nt,-15.1%,-9.4%
COc1ccc(N(CC(=O)NC2CCCCCCC2)S(=O)(=O)c2c(C)nn(C)c2C)cc1,-17.0%,?,nt,0.8%,1.9%,-3.6%,-8.2%,-22.9%
Cc1ccccc1-c1nc(CN2CCC(C(=O)NCc3cccs3)CC2)c(C)o1,-4.5%,-4.1%,1.5%,4.3%,?,3.8%,-16.8%,-20.4%
COc1ccc(CN2CCCC(CNC(=O)c3ccc(F)cc3)C2)c(F)c1 (stereo unspecified),-2.3%,nt,-29.2%[46.1 µM],-0.1%,?,nt,-0.5%,-16.5%
O=C(O)C1CC=CCC1C(=O)NC1CCCCC1 (stereo unspecified),4.7%,nt,-1.9%,-0.2%,12.2%,nt,-13.6%,29.4%
COc1cccc(NC(=O)C2C3CCC4C(CCC32)C4(Cl)Cl)c1 (stereo unspecified),-5.3%,9.5%,0.9%,-6.7%,-2.0%,-6.7%,3.7%,0.0%
O=S(=O)(Nc1cccc(-c2ccc(N3CCOCC3)nn2)c1)c1ccccc1C(F)(F)F,nt,29.5%,0.0%[46.1 µM],nt,nt,-5.4%,nt,44.0%[activator]
C/C(=N\NS(=O)(=O)c1ccccc1)c1cc(Cl)cc(Cl)c1O,nt,nt,14.4%[46.1 µM],-3.6%,-1.8%[46.1 µM],nt,23.5%,-33.3%
CC(OC(=O)c1ccc(NC(=O)CC#N)cc1)C(=O)Nc1nc(-c2ccccc2)cs1 (stereo unspecified),nt,nt,?,-3.3%,-11.5%[46.1 µM],nt,2.6%,?
Cc1ccc2nc(Nc3nc(C)cc(-c4ccccc4)n3)[nH]c(=O)c2c1,4.1%,nt,?,0.5%,?,nt,-10.6%,-10.4%
COc1ccc(-c2csc3nc(C)nc(N4CCCCC4)c23)cc1OC,nt,nt,?,-2.9%,?,nt,4.9%,0.5%
CN(C)CCCCOc1ccc(F)cc1,nt,nt,6.1%,0.7%,0.0%[46.1 µM],nt,-10.3%,-5.8%
CCOC(=O)C(C)Sc1ncc(-c2ccc(Cl)cc2)cn1 (stereo unspecified),-18.4%,-4.0%,5.6%,-10.9%,1.2%,-7.5%,-25.8%,-47.3%
CCn1c(CNC(=O)c2ccc(OC)c(OC)c2)nnc1SCC(=O)Nc1ccc(OC)cc1,-7.1%,-10.5%,?,23.8%,?,0.8%,-24.2%,-12.6%
C=CCN=C1CC(C)(C)C(C(=O)OC)C(O)=C1C(=O)CCC (stereo unspecified),2.7%,nt,8.7%[46.1 µM],-0.9%,11.8%,nt,32.8%,-14.7%
CS/C(=C\[N+](=O)[O-])Nc1ccc(Cl)cc1,6.0%,-12.4%,4.0%,-4.5%,?,0.2%,10.5%,-27.7%
C/C(=C\C(=O)c1ccc(Br)cc1)NCc1ccc2c(c1)OCO2,-11.5%,4.9%,3.9%,4.4%,-11.1%,-5.2%,-13.0%,-19.5%
CCCCSc1nc(C)nc2c1c(=O)n(C)c(=O)n2C,16.1%,4.2%,nt,?,1.1%,0.3%,1.9%,-24.5%
CCc1ccc(Nc2ccc3nonc3c2[N+](=O)[O-])cc1,nt,nt,-1.4%,nt,-2.1%[46.1 µM],nt,4.8%,-8.8%
CC(C)(C)c1cc(=O)n2[nH]c(N)nc2n1,-2.1%,nt,-2.8%[46.1 µM],1.2%,15.5%[46.1 µM],nt,0.0%,-9.2%
CC1CN(S(=O)(=O)c2cc(C(=O)NCCC3=CCCCC3)ccc2Cl)CC(C)O1 (stereo unspecified),nt,nt,?,-5.1%,-25.6%[46.1 µM],nt,-0.3%,-17.6%
Cc1csc(NC(=O)c2ccc3ccccc3n2)n1,1.9%,nt,?,0.6%,?,nt,-26.9%,-36.6%
CN(CC(=O)NC1CC(C)(C)NC(C)(C)C1)S(=O)(=O)c1cc(Cl)ccc1Cl,3.1%,nt,-3.1%[46.1 µM],0.9%,-4.9%[46.1 µM],nt,6.2%,1.3%
O=C(Nc1ccccc1)c1ccc(Nc2c([N+](=O)[O-])cc([N+](=O)[O-])c3ccccc23)cc1,4.7%,10µM*,-26.5%,-16.5%,?,-5.8%,-4.1%,?
CCN(C(=O)c1sc2nc3n(c(=O)c2c1C)CCCCC3)c1ccc(OC)cc1,nt,-4.1%,26.9%[46.1 µM],nt,nt,-4.3%,nt,-18.3%
Cc1cc(=O)[nH]c2nnnn12,-0.6%,nt,nt,0.5%,nt,nt,0.7%,-1.5%
COc1ccc(N2CCN(C(=O)CSc3nnc(COc4cccc5cccnc45)o3)CC2)cc1,-6.2%,-7.8%,-7.5%,1.8%,?,1.2%,0.2%,?
CCOC(=O)CN(C)Cc1cn(C)nc1-c1ccc(Oc2ccccc2)cc1,-18.6%,nt,-1.4%[46.1 µM],-5.4%,-25.7%[46.1 µM],nt,-6.2%,-18.7%
CC1CCN(C(=O)Cn2cc(SCC(=O)NCC3CCCO3)c3ccccc32)CC1 (stereo unspecified),nt,nt,nt,1.9%,0.7%[46.1 µM],nt,2.3%,-14.9%
O=c1[nH]c(-c2ccccc2)nc2sc(-c3ccccc3)cc12,5.5%,nt,?,0.1%,?,nt,-17.6%,3.2%
CSc1ncccc1C(=O)NC1CCCCCC1,2.2%,nt,nt,-2.8%,nt,nt,6.1%,7.4%
COc1ccc(-n2nnnc2SCC(=O)Nc2cccc(O)c2)cc1,15.2%,nt,-7.6%,-2.0%,-0.5%,nt,1.6%,-13.7%
CN(Cc1ccccc1)c1nc(-c2cccc([N+](=O)[O-])c2)nc2ccccc12,-8.3%,?,24.3%,-3.9%,7.9%,-2.9%,-5.3%,?
Cc1nc(N2CCN(c3ccccn3)CC2)c2c(C)c(C(=O)N3CCN(c4ccc(F)cc4)CC3)sc2n1,-30.8%,nt,?,-2.8%,?,nt,-16.3%,?
CCc1ccc(-c2csc(NC(=O)COC(=O)CCc3nc4ccccc4s3)n2)cc1,-4.4%,12.6µM*,21.1%,21.4%,42.0%,-3.4%,nt,nt
CCc1ccc(C(C(=O)NCCOC)N(C(=O)Cn2nnc3ccccc32)c2cccnc2)cc1 (stereo unspecified),3.7%,-0.3%,-2.5%,16.2%,7.8%,0.5%,7.2%,12.6%
Cc1ccc(-c2cc(C(=O)N/N=C/c3c(C)nn(-c4ccccc4)c3C)n[nH]2)s1,15.9%,?,8.2µM*,-4.3%,?,-6.7%,1.7%,?
COc1cccc2c1OC[C@@H](CO)[C@H]2N(C)C(=O)Nc1ccccc1,2.5%,3.7%,-16.2%,-0.3%,4.0%,-2.1%,3.2%,1.5%
COc1ccc2[nH]cc(CCN=C(N)N)c2c1,nt,nt,-12.3%[46.1 µM],-3.7%,21.3%[46.1 µM],nt,8.2%,1.0%
Cc1ccnc(NCc2ccccc2O)c1,-7.9%,nt,-6.2%[46.1 µM],-5.4%,8.5%[46.1 µM],nt,-4.4%,16.8%
Cc1ccccc1OCC(=O)O/N=C(\N)Cc1cccs1,?,?,-21.7%,6.1%,23.0%,-1.6%,?,nt
CC(C)(C)OC(=O)NC(CCCCNC=O)C(=O)O (stereo unspecified),-0.7%,9.4%,-27.7%,-8.2%,11.6%,-0.3%,3.9%,-5.2%
O=C(CS(=O)(=O)c1ccccc1)N1CCCCCC1,-0.4%,2.9%,6.5%,0.7%,?,3.5%,1.6%,41.4%[activator]
CC1CC(C)CN(c2oc(-c3ccccc3Cl)nc2C#N)C1 (stereo unspecified),3.2%,-18.2%,-14.7%,1.2%,-11.3%,6.6%,-2.5%,nt
C[C@H](N)Cc1c[nH]c2ccc(O)cc12,nt,4.7%,nt,nt,-10.6%&-10.6%,1.2%,nt,-7.6%
CCOC(=O)c1c(C)c(C(=O)N2CCc3ccccc3C2)c(C)n1CC,-48.7%,2.4%,?,-21.8%,?,1.3%,-0.7%,7.1%
C[C@@H](C(=O)NCc1ccco1)N1C(=O)N2CCc3c([nH]c4ccccc34)[C@@]2(C)C1=O,1.1%,nt,nt,-4.0%,nt,nt,16.7%,?
N#CCCN1CCN(Cc2cc(-c3ccccc3)ccc2O)CC1,-3.3%,-7.4%,-1.8%,-19.1%,-8.0%,8.2%,-9.9%,-22.2%
O=C(NCc1ccc(F)cc1)C(c1ccccc1)N(C(=O)c1csnn1)c1ccccc1 (stereo unspecified),1.9%,nt,-16.1%,-2.6%,?,nt,26.6%,-22.4%
COc1ccc(CC(=O)Nc2ccc3c(c2)OCO3)cc1S(=O)(=O)N1CCOCC1,-3.1%,-5.0%,-11.8%,-3.1%,2.8%,0.1%,-2.3%,2.6%
C/C(=N\Nc1ccc(F)cc1F)c1ccccc1O,nt,nt,nt,-5.4%,4.6%[46.1 µM],nt,40.4%,43.7%[activator]
Cc1cc(NC(=O)CSc2nc(-c3cccs3)cc(C(F)(F)F)n2)no1,12.2%,?,?,1.5%,?,-2.5%,8.4%,nt
O=C(N/N=C/c1cc(Br)c(Br)s1)c1ccncc1,nt,nt,10µM*,-4.7%,?,nt,0.1%,18.8%
CCOC(=O)c1c(NC(=O)C2COc3ccccc3O2)sc(C)c1C (stereo unspecified),-3.2%,-25.9%,0.0%,4.8%,2.8%,-7.0%,-11.0%,-16.1%
CCOC(=O)C1C(=O)C=C(c2cccs2)CC1c1ccccc1C (stereo unspecified),-5.3%,2.3%,-7.0%,-41.9%,?,-10.7%,2.2%,-8.6%
Cc1ccc(C(=O)Nc2ccccc2C(=O)NCC2CCCO2)cc1 (stereo unspecified),-70.5%,nt,nt,-3.5%,nt,nt,2.5%,-10.9%
CC(=O)NS(=O)(=O)c1ccc(NC(=O)c2cc(-c3ccc(C)c(C)c3)nc3ccccc23)cc1,21.7%,5.0%,1.2%,7.1%,-5.1%,?,4.4%,28.1%
